gsp antagonist = gsp mutant antagonism. 340,000 tested, 0.4% active. gsp-mutant cells, cAMP HTRF, 30 min; control for the full effect not named in the record. AID 624288. Potency, µM (top dose mostly 76.9 µM), for the others: at the top dose activity change, negative = inhibition, usual class: inhibitors; active = falling curve of any shape with a large fitted effect; inconclusive = falling curve, mostly with a smaller effect; inactive = flat or rising curve; cell line not stated here;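 also: intracellular cAMP measured with PDE inhibitor Ro 20-1724 present during compound exposure; potency is read from the fitted curve at half-maximal effect; % is scaled to controls: 0 for no effect and ±100 for the full control effect; nearly all actives have a fitted effect of over 65% in size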
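G418-selected cells were plated in DMEM/10% FBS for 16-24 h at 37C, then treated with compounds plus the PDE inhibitor […] (300 uM solution added) for 30 min at 37C. Intracellular cAMP was measured by HTRF after 30 min lysis at room temperature.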
CtBP-E1A blk = blocks the CtBP interaction with E1A; 340,000 tested, 0.49% active; activity change, % (concentration not given with the values); AlphaScreen GST-E1A/His-CtBP binding, 1536-well; stronger effect = lower value; control for the full effect not named in the record; in the data active means activity change below about -65%; inconclusive means about -30% to -65%; inactive means above about -30%; also: % is scaled to controls: 0 for no effect and ±100 for the full control effect
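Steps: dispense buffer (Tris pH 8.0, NaCl 300 mM, TCEP 1 mM, BSA, Tween 20); add 5X protein mix (GST-E1A, His-CtBP, 125 nM each); pin 23 nL compound; 2 h at 37 °C, dark; add 5X beads (50 ug/mL); 1 h; read.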
Six1-Eya2 blk = inhibitors of human Six1/Eya2 interaction. Q15475+O00167. AlphaScreen GST-Six1/His-Eya2 binding, biochemical; stronger effect = lower value; control for the full effect not named in the record. activity change, % (concentration not given with the values). 360,000 tested, 0.56% active; in the data active = activity change below about -65%; inconclusive = about -30% to -65%; inactive = above about -30%; also: % is scaled to controls: 0 for no effect and ±100 for the full control effect
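Compounds are tested against tagged Six1 and Eya2 proteins bridged by glutathione donor and nickel acceptor beads; after a one-hour incubation at 37 °C without light, AlphaScreen emission is recorded.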
D2 ag = activates the human D2 dopamine receptor | P14416 | DiscoveRx PathHunter D2 beta-arrestin, luminescence, 90 min; 100% = 57 uM dopamine signal | activation, % (no concentration beside the values) | 360,000 tested, 0.084% active | AID 624465; in the data active = activation above about 40%; inconclusive = about 15% to 40%; inactive = below about 15%; also: compound concentration not given in the record; the text of the record calls up to 30% inactive
Target sequence (P14416 whole entry, looked up): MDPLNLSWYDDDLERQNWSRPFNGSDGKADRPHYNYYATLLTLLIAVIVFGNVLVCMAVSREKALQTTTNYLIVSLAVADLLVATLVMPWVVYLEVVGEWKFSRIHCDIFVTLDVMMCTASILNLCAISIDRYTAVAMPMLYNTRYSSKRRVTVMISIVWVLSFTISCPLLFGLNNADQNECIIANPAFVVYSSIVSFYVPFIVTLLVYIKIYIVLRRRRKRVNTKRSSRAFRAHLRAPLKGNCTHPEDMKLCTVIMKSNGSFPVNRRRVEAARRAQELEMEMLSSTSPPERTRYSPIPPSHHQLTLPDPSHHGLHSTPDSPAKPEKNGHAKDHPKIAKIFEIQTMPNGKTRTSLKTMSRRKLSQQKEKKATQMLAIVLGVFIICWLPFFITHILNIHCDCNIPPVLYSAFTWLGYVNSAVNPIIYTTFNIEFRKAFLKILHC
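Agonist mode: compounds alone added to overnight-plated D2 PathHunter cells for 90 min at 37 C, with 57 uM final dopamine (EC100) defining full response. Beta-arrestin recruitment detected by chemiluminescent reagent, read after 1 h at ambient temperature.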
gsp agonist = gsp mutant agonism; gsp mutant cells, cAMP HTRF, 30 min; control for the full effect not named in the record; Potency, µM (highest dose often 76.9 µM), for the others: at the highest dose activation (cAMP increase), hits mostly activators; 340,000 tested, 0.13% active; AID 624287; active = well fitted activation curve with a large enough effect; inconclusive = small, poorly fitted or top-dose-only effect, or another doubt; inactive = no such curve, though single readings can be large or run the other way; cell line not stated here;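 also: phosphodiesterase inhibitor Ro 20-1724 added with compounds to block cAMP breakdown; potency is read from the fitted curve at half-maximal effect; nearly all actives have a fitted effect of over 60% in size; about a fifth of the inactives were tested at one dose only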
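Cells in DMEM/10% FBS with G418 were pretreated with compounds in DMSO plus […] (300 uM stock) for 30 min at 37C. cAMP was measured by HTRF (cAMP-d2 plus anti-cAMP antibody-K) after 30 min at room temperature.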
D2 PAM = positive allosteric modulators of human D2 dopamine receptor; potentiation, % (no concentration beside the values); DiscoveRx D2 beta-arrestin cells, luminescence, 90 min; 100% = 57 uM dopamine signal; AID 624464; 360,000 tested, 0.23% active; active = potentiation of 50% or more; inconclusive = 30% to 50%; inactive = 30% or less;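 also: compound concentration not given in the record; tested on top of an EC20 dose of dopamine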
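PathHunter beta-arrestin assay in DiscoveRx D2 cells. Compounds were added with an EC20 of dopamine (50 nM final) for 90 min at 37 deg C. Luminescence was read 1 h after detection reagent, with 57 uM dopamine as the EC100 control.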
* hit, by the source's call; ? = inconclusive; nt = no result given; [ ] = dose if it differs, or a comment.

D2 PAM,gsp agonist,Six1-Eya2 blk,gsp antagonist,CtBP-E1A blk,D2 ag,SMILES
-19.5,-1.7%,20.1,7.8%,0.0,-5.1,Cn1ncc(N)c1C(=O)Nc1cccc(C(F)(F)F)c1
11.6,-11.3%,-1.1,-17.7%,2.3,0.0,CC1CCN(S(=O)(=O)c2cccc(C(=O)NC3CCCC3)c2)CC1
-2.4,nt,-4.5,nt,0.0,-4.4,CCCCN(C=O)c1c(CC)nc2c(OCc3ccc(C(F)(F)F)cc3)cccn12
-4.8,12.3%,1.7,14.6%,3.1,-1.7,COc1ccc(C(=O)OC2CCN(C)CC2)cc1
-16.7,-58.9%[inhibitor],-7.0,-0.4%,7.7,0.4,CC1=CC(C)(C)n2c(O)c(C3=NC(=S)NC3=O)c3cc(OC(=O)c4cccc5ccccc45)cc1c32
-15.4,-10.2%,-4.5,4.0%,9.3,-3.8,CC1CCCN(C(=O)CSc2nc3ccccc3o2)C1 (stereo not drawn)
6.5,-5.7%,3.5,-1.8%,6.4,-2.4,C/C(=N/NS(=O)(=O)c1ccc(C(C)C)cc1)c1ccncc1
2.4,3.3%,41.3,14.1%,-0.3,-4.8,CCN(CCn1cccn1)C(=O)c1cc(COc2c(F)cccc2F)on1
-37.2,11.1%,-2.7,-4.9%,-13.6,-1.2,Cc1ccc([N+](=O)[O-])cc1NC(=O)CN(C1CCCCC1)S(=O)(=O)c1ccc(Cl)cc1
-19.1,-3.4%[15.4 µM],-11.8,-5.3%,-6.0,-5.2,Nc1ccc(C(=O)N/N=C/c2cn(Cc3ccccc3)c3ccccc23)cc1
-6.7,nt,-1.6,-8.0%,-0.2,-2.9,CC1(c2nnc(-c3cccc(Cl)c3)o2)CC(c2ccccc2)=NO1 (stereo not drawn)
-19.4,-6.5%[15.4 µM],-11.1,?,-5.3,-9.6,O=C1C(=O)c2ccccc2C(O)=C1c1cccc([N+](=O)[O-])c1
-10.0,-16.2%,11.8,-12.5%,10.0,0.1,COc1cc(C=O)ccc1OCCOCCOc1cc(C)ccc1Cl
-1.9,-21.3%[15.4 µM],-23.6,28.2µM*,1.0,5.6,CCn1c2ccccc2c2cc(/C=N/NC(=O)c3ccc(O)cc3)ccc21
nt,7.8%,1.3,nt,-1.8,-2.7,COc1ccc([C@H]2C[C@H](O)[C@@H](n3cc(COC(=O)c4ccccc4)nn3)CN2Cc2cccs2)cc1
-6.5,15.1%[15.4 µM],4.2,-5.9%,-4.2,-7.2,CN(CCC#N)C(=S)NC(=O)c1ccc(S(=O)(=O)N2CCOCC2)cc1
3.1,-29.2%,5.9,18.2%,4.1,-2.2,Cc1cccc(C(=O)NC(C)c2ccc(-n3ccnc3)cc2)c1C (stereo not drawn)
-20.7,8.8%,3.0,-9.0%,-0.2,2.2,CCCc1cc(C(=O)N2CCCC(N3CCN(c4ccccc4C)CC3)C2)n(C)n1 (stereo not drawn)
-1.5,5.2%,6.0,12.0%,0.4,-1.1,CCN(C(=O)CN1CCC(C(=O)OC)CC1)c1c(N)n(Cc2ccccc2)c(=O)[nH]c1=O
-6.0,2.5%,8.6,-15.9%,nt,-2.5,COc1ccccc1/C=N/Nc1cc(C)nc(N2CCOCC2)n1
0.0,nt,1.3,5.3%,-0.9,-0.5,O=C(NCc1ccc(C(F)(F)F)cc1)c1ccc2c(c1)S(=O)(=O)c1ccccc1C2=O
-10.1,5.1%,6.7,9.5%,6.0,1.1,CN(C)Cc1ccc(O)c(CCc2ccccc2)n1
0.9,-14.4%,?,-13.0%,?,-2.5,CO/N=C/C(=N\Nc1cc(OC)cc(OC)c1)C(=O)c1ccccc1
-9.4,-36.2%,8.0,4.7%,-10.1,-0.9,Cc1c(Cl)c(C(=O)N2CCCC2)nn1C
-5.4,-5.8%,-6.2,9.7%,-12.8,1.9,COc1cc(CNCCc2ccc(S(N)(=O)=O)cc2)ccc1OCc1ccc(Cl)cc1
nt,nt,5.3,12.1%,3.0,1.5,CCN(CC)C(=O)[C@H]1C[C@H](CC(=O)NCc2ccc(OC)c(OC)c2)C(=O)N2CCc3c([nH]c4cc(CCC(=O)N(C)C)ccc34)[C@]12C
-3.1,nt,-3.5,nt,2.5,-4.3,COc1cc(/C=C/CNC[C@H]2O[C@@H](n3cnc4c(N)ncnc43)[C@H](O)[C@@H]2O)ccc1O
-2.6,-42.1%[inhibitor],-11.4,1.8%,-6.8,3.4,Cc1ccc2c(c1)C(=O)N1[C@H]3c4cc(Br)ccc4OC[C@@H]3[C@H](c3ccccc3)[C@]1(C)C(=O)N2
6.7,-4.1%,5.5,6.4%,nt,1.8,Cc1ccnc(NS(=O)(=O)c2ccccc2)c1
2.8,7.6%,0.1,?,-4.0,2.2,N#Cc1ccccc1S(=O)(=O)N1CCN(C(=O)c2cccc(S(=O)(=O)N3CCCC3)c2)CC1
-28.9,-14.3%[15.4 µM],5.9,4.8%,5.9,1.9,CCOc1ccc(C(C)=O)cc1CN1C(=O)NC2(CCCCCCC2)C1=O
4.7,-3.1%,7.5,3.6%,-4.0,-3.3,COc1cc(C=CC(=O)OCC=Cc2ccc3c(c2)OCO3)cc(OC)c1OC
-23.2,19.5%,-3.5,14.4%,-3.5,-4.0,COC(=O)c1ccc(NC(=O)Cn2nc(-c3ccncc3)nc2SCC(=O)Nc2nccs2)cc1
9.3,11.5%,0.6,-16.0%,4.6,-4.9,CCn1c(SCC(N)=O)nc2c(c1=O)C1(CCCC1)Cc1ccccc1-2
0.9,-32.5%[inhibitor],4.2,-21.8%,-0.8,0.7,COc1cc(CN(C)C(=O)C2CCN(S(=O)(=O)c3cccs3)CC2)ccc1OC(F)F
-5.3,28.8%,9.3,-2.6%,2.0,-2.9,Cc1cccn2c(=O)c3cc(C#N)c(=N)n(Cc4cccnc4)c3nc12
14.6,-20.0%,-10.5,-10.6%,-0.7,-1.7,Cc1cc(-c2csc(NC(=O)c3ccc(=O)n(C)n3)n2)c(C)n1CC1CCCO1 (stereo not drawn)
-9.4,-1.1%[15.4 µM],-6.2,?,-2.4,-1.2,Cc1ccc(C2C=C(c3ccccc3)Nc3nc(N4C(=O)CCC4=O)nn32)cc1 (stereo not drawn)
6.0,-0.2%,-3.8,4.2%,-10.2,-0.4,CC(C)N1C(=O)S/C(=C/c2cccnc2)C1=O
6.7,-3.7%[15.4 µM],-4.9,8.6%,0.0,1.5,COc1ccc(C(=O)NCCS(=O)(=O)N2CCc3ccccc3C2)cc1OC
-6.0,-2.6%[15.4 µM],-14.3,-9.9%,-10.1,-2.0,C=C1c2cc3c(cc2NC(=S)N1Cc1ccccc1)OCO3
2.7,18.2%,-1.7,?,9.7,-5.1,Nc1nonc1-n1nnc(C(=O)N/N=C/c2ccc(Br)cc2)c1-c1ccc2c(c1)OCO2
-33.3,15.1%,-2.4,-8.7%,-27.5,-5.8,CCN(CC)c1ccc(NC(=O)C2CCCN(S(=O)(=O)c3cnc[nH]3)C2)c(C)c1 (stereo not drawn)
-12.4,-110.5%[inhibitor],-5.7,nt,-3.9,-0.8,CCCCn1nc(C(=O)N(C)Cc2nc3ccccc3c(=O)[nH]2)c2ccccc2c1=O
-10.6,7.6%,-8.6,-14.2%,-1.9,-3.5,Cc1cccc(C)c1N(CC(=O)N/N=C/c1cc(Br)c(C)o1)S(C)(=O)=O
-30.4,14.4%,-3.9,-5.7%,-1.7,-2.4,O=c1cc(CO)oc(CN2CCN(c3cccc(C(F)(F)F)c3)CC2)c1O
-6.0,18.9%,0.0,8.4%,5.4,-1.6,CCNc1ncnc2c1cnn2C1CCCO1 (stereo not drawn)
-6.5,21.4%,4.7,-9.8%,nt,-5.9,Clc1ccc(C2=NN=C3COc4ccccc4N3C2)cc1
-7.0,-41.4%[inhibitor],-2.8,nt,-0.5,-0.8,COc1ccc(C(=O)N/C(=C\c2cn(S(=O)(=O)N(C)C)c3ccccc23)C(=O)N2CCCC2)cc1
-18.3,2.6%,-13.8,-13.2%,nt,-7.7,O=C(CNC(=O)c1cccs1)N=Nc1c(O)[nH]c2ccc([N+](=O)[O-])cc12
-1.3,1.6%,17.3,6.1%,-21.4,-3.1,COC(=O)Cc1ccc(NC(C)=O)cc1
-3.5,-27.1%,-1.6,-9.5%,-12.9,-4.1,COc1ccccc1CNC(=O)CS(=O)Cc1nc(-c2ccccc2C)oc1C (stereo not drawn)
-8.0,-16.6%,0.1,19.8%,3.7,-4.4,Nc1ccc(C(=O)OCC(=O)NC2CCS(=O)(=O)C2)cc1[N+](=O)[O-] (stereo not drawn)
-7.9,0.4%[15.4 µM],-4.7,17.5%,1.0,-1.0,COc1cc(C2C(C#N)=C(N)Oc3cc(C)oc(=O)c32)cc(OC)c1OC (stereo not drawn)
-7.3,17.5%,6.0,19.8%,0.5,-5.1,CC(=O)c1ccc(S(=O)(=O)NCc2cccnc2)cc1
-1.7,-1.9%[15.4 µM],-21.5,25.4%,-0.3,-7.9,Cc1ccc(-n2c(C)cc(/C=C3\NC(=O)NC3=O)c2C)c(C)c1
